High-throughput results (PubChem)
N370S GC mod – inhibitors or activators of N370S glucocerebrosidase for Gaucher disease; 0.092% of 330,000 active; Potency, µM (top dose mostly 59.4 µM), for inactives: at the highest dose activity change, negative = inhibition, usual class: inhibitors; P04062; N370S GC spleen homogenate, 4MU-glucoside fluorescence; AID 2101;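 also: 0% = full enzyme activity and -100% = no enzyme basal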
FEN1 inh – blocks human flap endonuclease 1. Recombinant FEN1 flap cleavage, fluorescence, 15 min. 0.35% of 390,000 active. P39748. Potency, µM (series often up to 114 µM), without a hit: at the highest dose activity change, negative = inhibition, usual class: inhibitors; also: nearly all actives have a fitted effect of over 65% in size
Target sequence (P39748 whole entry, looked up): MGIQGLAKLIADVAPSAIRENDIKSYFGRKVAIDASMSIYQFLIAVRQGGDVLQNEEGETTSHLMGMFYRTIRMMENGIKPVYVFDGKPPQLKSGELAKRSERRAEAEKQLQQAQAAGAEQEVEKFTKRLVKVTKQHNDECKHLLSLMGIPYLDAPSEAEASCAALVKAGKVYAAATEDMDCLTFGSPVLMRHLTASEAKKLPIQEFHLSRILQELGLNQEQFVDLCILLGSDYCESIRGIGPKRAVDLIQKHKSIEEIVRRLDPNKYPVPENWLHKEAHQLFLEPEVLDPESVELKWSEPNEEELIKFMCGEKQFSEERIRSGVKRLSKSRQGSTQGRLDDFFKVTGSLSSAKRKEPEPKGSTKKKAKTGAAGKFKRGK
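With each library titrated from low to high concentration, compounds met 10 nM FEN1 for 15 min at room temperature before 50 nM substrate was added; readings at 0 and 15 min fed four-parameter Hill curve fits.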
* marks the source's active call; other numbers are inactive results; ? = inconclusive; . = no result given; [ ] = remark or other dose. Calls follow the shape of the dose curve; as a rule, active = well fitted curve in the direction sought with a large enough effect; inconclusive = small, poorly fitted or top-dose-only effect, or another doubt; inactive = no such curve, though single readings can be large; an effect the other way counts as inactive or inconclusive. Unless noted, % is scaled to controls: 0 for no effect and ±100 for the full control effect; potency is read from the fitted curve at half-maximal effect. This is a subset; most or all hits stand in other tables.

no. | N370S GC mod | FEN1 inh | Structure
1 | -2% | 6% | Cc1nnc2n(C3CCCCC3)c(=O)c3c4c(sc3n12)COC(C)(C)C4
2 | 1% | -12% | O=C(COc1ccc(Cl)cc1Cl)Nc1cccnc1
3 | -20% | 15% | CCCn1c(N)c(N(CCOC)C(=O)c2cc(C)cc(C)c2)c(=O)[nH]c1=O
4 | 16% | -1% | CC(C)(C)C(=O)NC(=S)NNC(=O)c1sc2ccccc2c1Cl
5 | 9% | 10% | Fc1ccccc1NC(=S)NCc1ccc2c(c1)OCO2
6 | 2% | -15% | COc1ccccc1-c1nnc(SCC(=O)NCc2cccs2)n1N
7 | . | -12% | O=C(C=Cc1cccs1)c1ccccc1
8 | 9% | -3% | CC(CCc1ccco1)NC(=O)c1cccc2c1C(=O)N(C1CCCCC1)C2 (configuration not stated)
9 | . | 5% | NS(=O)(=O)c1cccc(NC(=O)c2cccc(S(=O)(=O)N3CCCCCC3)c2)c1
10 | -7% | -4% | O=S(=O)(c1ccccc1)N(CC1CO1)c1cc(Cl)ccc1Cl (configuration not stated)
11 | 2%[12.8 µM] | -7% | Cc1cccc(NC(=S)NC2CC3CCCC(C2)N3Cc2cccs2)c1C (configuration not stated)
12 | 8% | -8% | CC(C)(C)c1ccc(CSc2nnc(-c3ccccc3NC(=O)c3ccccc3)o2)cc1
13 | ? | 2% | CC(Oc1cc2oc(=O)c3c(c2cc1Cl)CCC3)C(=O)NCCCN1CCCC1=O (configuration not stated)
14 | -6% | 1% | O=C(c1ccco1)N1CCN=C1SCc1cccc(Cl)c1
15 | 14% | -2% | CC/C(=N/Nc1ccccc1C)c1cnnc(SC)n1
16 | 5% | -2% | Cc1sc2ncn(CC(=O)NCCCC(=O)N3CCN(c4ccccc4)CC3)c(=O)c2c1C
17 | 0% | -8% | O=C(NCCCN1CCCC1=O)c1ccc2c(c1)NC(=O)c1ccccc1S2
18 | 4% | -1% | COC(C)(C)[C@]12CC(O)(c3ccccc3)ON1[C@H]1CCCCC1N2O (some centres not stated)
19 | -2% | 3% | CC(C)=CC(=O)Nc1nnc(C)s1
20 | -2% | 26% | OC[C@@H](O)[C@@H](O)[C@H](O)[C@@H](O)CO
21 | -10% | 16% | CC(C)C(=O)NCc1cc(-c2ccccc2)no1
22 | 21% | -14% | Cc1sc2nc(C(C)C)nc(SCC(=O)NCc3ccco3)c2c1C
23 | -2% | -24% | CCOC(=O)c1ccc(NC(=O)N2CCc3ccccc3C2)cc1
24 | . | -5% | Cc1cc(NC(=O)C(C)SCC(=O)OCc2ccc(Cl)cc2Cl)no1 (configuration not stated)
25 | -18% | -8% | CCc1ccc(/C=C/c2c[nH]c3ccccc23)[n+](CC)c1

(continued)
no. | N370S GC mod | FEN1 inh | Structure
26 | -7% | 0% | CC(=O)OCC(=O)Nc1cc(S(=O)(=O)N2CCCCCC2)ccc1Cl
27 | 29% | -5% | O=[N+]([O-])c1cc2c(cc1/C=N/n1c(-c3ccccc3)n[nH]c1=S)OCO2
28 | -8% | -2% | Cc1n[nH]c(C)c1NC(=O)c1cc([N+](=O)[O-])ccc1Cl
29 | -7% | 0% | Cc1ccc(NC(=O)COc2ccc(N3CC(C(N)=O)CC3=O)cc2)c(C)c1 (configuration not stated)
30 | -6% | 3% | COCCN(C(=O)CSc1n[nH]c(-c2ccccc2)n1)c1c(N)n(Cc2ccccc2)c(=O)[nH]c1=O
31 | 12% | 0% | CSc1cccc(CN2CCC(n3nccc3NC(=O)C3CC3)CC2)c1
32 | 0% | 0% | Cn1c(=O)c2c(nc(N3CCOCC3)n2CCCNC2=NCCC2)n(C)c1=O
33 | . | -10% | Cc1ccc(NC(=O)CN(C)C(=O)C(C)N2CCN(Cc3ccccc3C)CC2)cc1 (configuration not stated)
34 | -4% | 3% | COCCn1c(C(C)C)nc2oc3ccccc3c(=O)c2c1=O
35 | 13% | -9% | N#Cc1nc(Cc2ccccc2)oc1NCCc1ccccc1
36 | -22% | 1% | S=C(Nc1ccccc1Cl)N(CCCN1CCOCC1)Cc1ccccn1
37 | 7% | -3% | N#Cc1ccc(/C=C\c2nccc3c2[nH]c2ccccc23)cc1
38 | -28% | 2% | NC(N)=N/N=C/c1ccc(OCc2ccccc2)cc1
39 | 2% | 3% | CCOC(=O)NC(=O)CSc1ccc(C)cc1C
40 | 1% | 4% | Cc1ccccc1Cn1ccc(=NCc2ccccc2)cc1
41 | 3% | 2% | Cc1ccc2nc(/C(C#N)=C\c3ccc(Oc4ccc([N+](=O)[O-])cn4)cc3)[nH]c2c1
42 | -2% | 18% | Cc1ccc(/C=C2/Sc3ccc(C(=O)N4CCN(c5ccccn5)CC4)cc3NC2=O)cc1
43 | 2% | -6% | O=C(COC(=O)Cn1cnc2ccccc21)NCCC1=CCCCC1
44 | -13% | -6% | CC1CCCCN1S(=O)(=O)c1ccc(NC(=O)c2cccc(-n3cnnn3)c2)cc1 (configuration not stated)
45 | 10% | -8% | CCC1CCc2c(sc(NC(=O)c3cccnc3)c2C(N)=O)C1 (configuration not stated)
46 | -2% | 1% | O=C(c1ccc(Br)s1)N1CCCC1
47 | 11% | 3% | Cc1cc2c(N3CCCCC3C)ncnc2s1 (configuration not stated)
48 | -12% | -18% | COCCNc1c(-c2ccc(OC)c(OC)c2)nc2ccc(Cl)cn12
49 | 5% | -1% | O=C(NCCCn1ccnc1)/C(=C\c1cccs1)NC(=O)c1cccs1
50 | 2% | -10% | Cc1cnc(NC(=O)CSc2nnc(-c3ccccc3)o2)s1

More records.
no. | N370S GC mod | FEN1 inh | Structure
51 | 3% | 12% | COc1ccc(C=O)cc1CSc1nnc(COc2cccc3cccnc23)o1
52 | -11% | -2% | O=C(Nc1ccnn1C1CCN(Cc2ccc(F)cc2)CC1)C1CC1
53 | 0% | 0% | O=C(NCC1OCCc2ccccc21)c1ccc(NC(=O)c2ccc(Cl)cc2Cl)cc1 (configuration not stated)
54 | . | 3% | Cc1c(NC(=O)CSc2nc(N)cc(N)n2)c(=O)n(-c2ccccc2)n1C
55 | 0% | -11% | Cn1c(N)c(C(=O)CN2CCc3ccccc3C2)c(=O)n(C)c1=O
56 | . | -21% | COc1ccc(S(=O)(=O)N(CC(=O)Nc2ccc(Br)cc2)Cc2ccccc2)cc1
57 | -3% | -2% | CCOC(=O)c1ccc(S(=O)(=O)NC2CC2)cc1
58 | 5% | 1% | C/C(=N\NC(=O)Cc1ccc(F)cc1)c1ccc(F)cc1
59 | 1% | 16% | O=C(NCCS(=O)(=O)NC1CCCC1)c1ccc(F)cc1
60 | -2% | 6% | CCN(C(=O)N1CCOCC1)c1ccccc1C
61 | . | -12% | CCCCC[C@@H]1C=C(C(=O)O)[C@H](c2ccc(Cl)c(Cl)c2)N1S(=O)(=O)c1ccc(C)cc1
62 | . | 17% | CCC(=O)N1c2ccccc2CC1C(=O)NCCc1ccc(OC)c(OC)c1 (configuration not stated)
63 | . | 17% | O=C(Nc1ccccc1)c1cccc2c(=O)c3c([nH]c12)CCCC3
64 | -3% | 2% | O=C(NNC(=O)c1ccc(-c2ccccc2)cc1)Nc1ccccc1F
65 | 2% | 4% | CSc1nc2c(cc1C#N)C(=O)CC(C)(C)C2
66 | 7% | ? | COc1ccc(-c2noc(COc3ccc(C)c(C)c3)n2)cc1OC
67 | . | 5% | CSc1ccc(S(=O)(=O)NCC(=O)OCC(=O)N2CCC(C)CC2)cc1[N+](=O)[O-]
68 | -11% | -12% | CCn1c(-c2ccc3[nH]c(C)c(C)c3c2)n[nH]c1=S
69 | -12% | -1% | C/C(=N\N=C(N)N)c1ccc(Cl)c(Cl)c1
70 | -4% | -12% | CCOC(CNC(=O)C(=O)Nc1cc2c3c(c1)CCC(=O)N3CCC2)OCC
71 | . | -4% | CCOC(=O)c1scc(-c2ccc(C)cc2)c1S(=O)(=O)Nc1cc(C)ccc1C
72 | . | -4% | COc1cccc(CN2CCc3nc(SCC(=O)Nc4ccccc4)[nH]c(=O)c3C2)c1
73 | 3% | 0% | CCOc1ccc(NS(=O)(=O)c2ccc(C(=O)N3CCCC3)cc2)cc1
74 | -4% | 8% | CC1CN(c2ncc(/C=N/NC(=O)c3ccccc3O)s2)CC(C)O1 (configuration not stated)
75 | -10% | 3% | CCOC(=O)c1cc(C)n(-c2ccc(Cl)cc2)c1C

Random excerpt: 2 compounds from above, in no set order.
no. | N370S GC mod | FEN1 inh | Structure
17 | 0% | -8% | O=C(NCCCN1CCCC1=O)c1ccc2c(c1)NC(=O)c1ccccc1S2
27 | 29% | -5% | O=[N+]([O-])c1cc2c(cc1/C=N/n1c(-c3ccccc3)n[nH]c1=S)OCO2

(cont.)
no. | N370S GC mod | FEN1 inh | Structure
76 | -5% | 3% | Cc1c(Cl)cnc(NC(=O)COC(=O)CCC(=O)c2cccs2)c1Cl
77 | -8% | 6% | COc1cc(NS(=O)(=O)c2ccc(NC(=O)c3ccc(Cl)cc3Cl)cc2)ncn1
78 | -8% | 10% | CC(C)=CCCC(C)CN1CCC(n2nccc2NC(=O)c2ccccc2)CC1 (configuration not stated)
79 | 16% | 3% | O=S(=O)(NCc1ccco1)c1ccc(S(=O)(=O)N2CCCC2)cc1
80 | . | -32% | COC(=O)[C@@]1(C)[C@H]2C(=O)N(C)C(=O)[C@H]2[C@H]2CN=C(SCC(=O)c3ccccc3)N21
81 | 8% | 5% | CC(C)C(=O)c1cn(CC(=O)O)c2ccccc12
82 | 7% | -8% | O=C(C1CCCN(Cc2ccncc2)C1)N1CCc2ccccc2C1 (configuration not stated)
83 | -4% | 7% | c1nc(NCCN2CCOCC2)c2sc3nc(N4CCOCC4)c4c(c3c2n1)CCC4
84 | 12% | -6% | CN(C)c1ccc(C(=O)OCC(=O)N2CCCCCC2)cc1
85 | . | -2% | CC1CCC2(CC1)NC(=O)N(CC(=O)NCCc1ccc(F)cc1)C2=O (configuration not stated)
86 | -5% | 8% | COc1ccc(C(=O)COC(=O)c2cccnc2SC)cc1
87 | -21% | -5% | FCCCOc1ccc(-c2ccnc(-c3ccccc3)n2)cc1
88 | 24% | -1% | C=CCOc1nc(N(C)C)nc(N(C)C)n1
89 | 2% | -2% | C/C=C(\C)C(=O)NCCN1C2=NC[C@@H](Cc3ccccc3)N2C[C@H]1Cc1ccc(O)cc1
90 | -28% | 5% | O=C(CN1CCCC1)Nc1ccc(Oc2ccc(NC(=O)CN3CCCC3)cc2)cc1
91 | 4% | 7% | O=C1CC[C@H](N2C(=O)c3ccccc3C2=O)C(=O)N1

Molecules shown so far containing a Cl atom, in the order listed:
no. | N370S GC mod | FEN1 inh | Structure
2 | 1% | -12% | O=C(COc1ccc(Cl)cc1Cl)Nc1cccnc1
4 | 16% | -1% | CC(C)(C)C(=O)NC(=S)NNC(=O)c1sc2ccccc2c1Cl
10 | -7% | -4% | O=S(=O)(c1ccccc1)N(CC1CO1)c1cc(Cl)ccc1Cl (configuration not stated)
13 | ? | 2% | CC(Oc1cc2oc(=O)c3c(c2cc1Cl)CCC3)C(=O)NCCCN1CCCC1=O (configuration not stated)
14 | -6% | 1% | O=C(c1ccco1)N1CCN=C1SCc1cccc(Cl)c1
24 | . | -5% | Cc1cc(NC(=O)C(C)SCC(=O)OCc2ccc(Cl)cc2Cl)no1 (configuration not stated)
26 | -7% | 0% | CC(=O)OCC(=O)Nc1cc(S(=O)(=O)N2CCCCCC2)ccc1Cl
28 | -8% | -2% | Cc1n[nH]c(C)c1NC(=O)c1cc([N+](=O)[O-])ccc1Cl
36 | -22% | 1% | S=C(Nc1ccccc1Cl)N(CCCN1CCOCC1)Cc1ccccn1
48 | -12% | -18% | COCCNc1c(-c2ccc(OC)c(OC)c2)nc2ccc(Cl)cn12
53 | 0% | 0% | O=C(NCC1OCCc2ccccc21)c1ccc(NC(=O)c2ccc(Cl)cc2Cl)cc1 (configuration not stated)
61 | . | -12% | CCCCC[C@@H]1C=C(C(=O)O)[C@H](c2ccc(Cl)c(Cl)c2)N1S(=O)(=O)c1ccc(C)cc1
69 | -12% | -1% | C/C(=N\N=C(N)N)c1ccc(Cl)c(Cl)c1
75 | -10% | 3% | CCOC(=O)c1cc(C)n(-c2ccc(Cl)cc2)c1C
76 | -5% | 3% | Cc1c(Cl)cnc(NC(=O)COC(=O)CCC(=O)c2cccs2)c1Cl
77 | -8% | 6% | COc1cc(NS(=O)(=O)c2ccc(NC(=O)c3ccc(Cl)cc3Cl)cc2)ncn1
